Beta cell apopt = blocks beta cell apoptosis. INS-1E cytokine-induced death, ATP luminescence, 48 h; percent of positive-control rescue, neutral wells zero. protection from apoptosis, % (no concentration beside the values). 300,000 tested, 0.8% active. AID 435005;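 active means all replicates at 75% or more, or half of them and the mean; inconclusive means half reach 75% but not the mean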;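 further: 0% = cytokine-treated negative control wells and 100% = positive control rescue; higher means more ATP so stronger rescue from cytokine killing; wells of about 40 µL received 100 nL stock; the first replicate is given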
Calb FLC = C. albicans growth modulation with fluconazole; C. albicans CaCi-2 (fluconazole-resistant clinical isolate) + fluconazole, Alamar Blue growth, 48 h; growth inhibition, % (concentration not given with the values); 300,000 tested, 0.57% active; AID 1979;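 active means most replicates above 75%; inconclusive means exactly half above 75%; inactive means most below 75%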;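 further: all wells also contain fluconazole at 8 µg/ml as a sub-toxic cotreatment; 0% = median of DMSO wells and 100% = median of geldanamycin control wells; wells of about 8 µL received 7.5 nL stock; the first replicate is given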
RanGTP-Impb inh = inhibitors of RanGTP-importin-beta interaction, primary screen, biochemical, FRET, CFP-Ran, YFP-importin-beta, homogeneous; cell-free CFP-Ran/YFP-importin-beta FRET ratio; inhibition, % (concentration not given with the values); 300,000 tested, 1.1% active; AID 2216;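 active means most replicates above 15%; inconclusive means exactly half above 15%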;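 further: 0% = DMSO wells and 100% = Ran loaded with GDP instead of GTP; wells of about 40 µL received 100 nL stock; the first replicate is given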
rRNA inh HTS = inhibits bacterial ribosomal RNA function over humanized ribosomes; E. coli WT GFP vs humanized-ribosome RFP mutants, fluorescence, 24 h; hits give low values; DMSO median 0, no signal -100; GFP signal change (wild-type ribosome), % (concentration not given with the values); 350,000 tested, 1.6% active; AID 720706;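 active means significant combined selectivity score with lowered wild-type GFP, culture density cut under 30%, mutant RFP and density less affected; inactive means any of these conditions unmet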; further: one replicate is shown; some compounds called inactive have numbers as strong as hits
A1 inh = inhibitors of the anti-apoptotic protein A1, read as caspase activation; MEF A1-2A-BIM cells, Caspase-Glo 3/7 luminescence, 3 h; percent of clofoctol response, vehicle zero; caspase activation, % (no concentration beside the values); 330,000 tested, 0.066% active; AID 2462;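 active means over half of replicate activation scores above 10%, or exactly half above 10 with the replicate mean above 10; inconclusive means replicate mean below 10 yet half the replicates above 10; inactive means over half of replicates below 10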;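 further: wells of about 30 µL received 50 nL stock; many hits fall short of the cut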
Vif TR-FRET = HIV-1 Vif–A3G interaction blockers – biochemical, TR-FRET, GST-Vif 1-94, biotin-A3G peptide, dose response retest, primary screen (AID 1117319). TR-FRET GST-Vif / biotin-A3G peptide binding; higher % means a stronger effect; test concentration not given here; strong numbers were not always called active. one-dose inhibition, %; IC50 in µM for titrated hits. 260,000 tested, 0.57% active;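 active means above the screen mean plus three standard deviations and confirmed in dose response; inconclusive means results disagree or hit not tested in dose response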;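 further: Vif residues 1-94 fused to GST binding biotinylated APOBEC3G peptide 110-148; 0% = full assay without inhibitor and 100% = GST in place of GST-Vif; retest series ran down from 100 µM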
AF4-AF9 inh = blocks AF4 peptide binding to human AF9 | P42568 | AlphaScreen, biotin-AF4 peptide binding to FLAG-AF9 | inhibition, % at 10 µM | 350,000 tested, 0.47% active;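 active means every replicate reaching a set inhibition limit, whatever the replicate mean, cut at about 25% in these data; inconclusive means mean inhibition reaches that limit but some replicates miss it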;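 further: 0% = plate neutral control median and 100% = total signal loss; the record names both 10 and 1 µM as test concentration; the first replicate is given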
Target sequence (P42568 whole entry, looked up): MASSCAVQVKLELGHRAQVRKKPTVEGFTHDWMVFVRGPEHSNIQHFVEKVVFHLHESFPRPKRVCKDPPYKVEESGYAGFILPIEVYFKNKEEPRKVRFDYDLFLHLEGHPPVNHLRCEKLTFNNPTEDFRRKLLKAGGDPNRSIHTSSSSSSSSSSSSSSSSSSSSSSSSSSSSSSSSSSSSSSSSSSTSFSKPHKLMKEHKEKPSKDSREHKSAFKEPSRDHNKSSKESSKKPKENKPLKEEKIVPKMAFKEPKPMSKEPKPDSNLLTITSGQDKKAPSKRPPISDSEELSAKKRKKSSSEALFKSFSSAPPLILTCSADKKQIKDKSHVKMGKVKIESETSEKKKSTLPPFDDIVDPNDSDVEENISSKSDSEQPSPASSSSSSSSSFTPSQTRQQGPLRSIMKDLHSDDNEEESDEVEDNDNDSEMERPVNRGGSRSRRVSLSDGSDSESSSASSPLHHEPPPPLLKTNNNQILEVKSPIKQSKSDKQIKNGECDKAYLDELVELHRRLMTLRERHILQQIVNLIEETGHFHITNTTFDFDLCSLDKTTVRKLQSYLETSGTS
T cruzi inh = T. cruzi replication inhibition | T. cruzi beta-gal in NIH3T3, luminescence, 90 h | inhibition, % (concentration not given with the values) | 300,000 tested, 1.4% active | AID 1885;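 active means mean inhibition across valid replicates above about 55%, limit read from the data; inconclusive means mean below that limit but half or more replicates reach it; inactive means mean below it, under half of replicates reach it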;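 further: signal also drops with host cell toxicity which is not excluded here; 0% = plate median of DMSO wells and 100% = zero luminescence signal; higher percent means less beta-gal luminescence so fewer parasites; stock transfer was 50 nL into about 50 µL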
rRNA inh HTS OD600 = also measured in rRNA inh HTS; calls as there; OD600 change, %; measured here: OD600 growth;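 optical density of the mix in the first replicate; 0 = DMSO median and -100 = no signal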
rRNA inh HTS RFP = recorded beside rRNA inh HTS, whose call it bears; RFP signal change, %; measured here: RFP humanized mutant strains;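 first replicate; 0 = DMSO median and -100 = no signal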
Starred values were filed as active, the others as inactive; u = inconclusive; x = no result given; & = joins results of further samples.

The line under a structure holds: Beta cell apopt | Calb FLC | RanGTP-Impb inh | rRNA inh HTS | rRNA inh HTS OD600 | rRNA inh HTS RFP | A1 inh | Vif TR-FRET | AF4-AF9 inh | T cruzi inh
> CCN(CC(=O)Nc1cccc(OC)c1)C(=O)c1cccc(S(=O)(=O)N2CCc3ccccc32)c1
    -6 | x | x | -11 | -15 | 4.6 | -1.2 | -19% | 2.6 | x
> CCCC[n+]1ccn(-c2nc3ccccc3nc2[N-]S(=O)(=O)c2ccccc2)c1
    4 | 5 | 5.2 | 14 | 12 | 2.2 | 0.7 | -3% | -2.5 | -9
> O=C(Nc1cccc(NC(=O)C2CC2)n1)C1CC1
    -3 | 7 | -0.3 | x | x | x | -1.0 | 10% | x | -12
> CCOC(=O)N1CCN(C(=O)CSc2ccc3nnc(CCNC(=O)c4ccccc4)n3n2)CC1
    -6 | 0 | -1.4 | 10 | 3 | 0.2 | 0.5 | -4% | -62 | -12
> CC(=O)c1cc2c(C)c(C(=O)c3ccccc3)oc2cc1O
    -5 | 18 | 3.0 | x | x | x | 1.5 | 9% | x | -1
> Cc1nc2ccccc2n1CC(O)Cn1c2ccccc2c2ccccc21 (centres undefined)
    8 | -3 | 0.6 | -4 | 6 | -2.0 | 0.4 | -15% | -2.3 | 18
> O=C1NC2=C(C(=O)CCC2)C(c2ccc(OC(F)F)cc2)N1 (centres undefined)
    -2 | -6 | -0.8 | 2 | 5 | 0.3 | -0.2 | 0% | -3.6 | -15
> C/C(CC(=O)Nc1ccc(Cl)cc1Cl)=N\NC(=O)C(=O)NCCO
    x | -3 | -0.5 | -9 | 1 | -0.4 | 0.7 | x | -3.2 | -21
> O=C(Cn1nnc(-c2cccc(C(F)(F)F)c2)n1)NC1CCCC1
    2 | -2 | 0.5 | 5 | 9 | -0.5 | 0.7 | u | x | -7
> NC(=O)c1ccsc1NC(=O)c1ccc(S(=O)(=O)N2CCCCC2)cc1
    1 | 4 | 4.0 | -11 | -9 | 11 | -3.9 | 19% | 7.6 | 2
> COc1cccc(CN2CCc3ccc(NC(=O)CCc4ccc(C)cc4)cc3C2)c1O
    x | 4 | 0.4 | -9 | -14 | 2.3 | x | x | 2.5 | 17
> O=C(CC(SCCO)c1ccc(F)cc1)c1ccco1 (centres undefined)
    -5 | 1 | 6.0 | x | x | x | 0.8 | 27% | x | -9
> CCC1=C(OC(=O)N(CC)CC)N2C(=O)OC(=NCC(=O)OC)[C@]2(Cc2ccccc2)[C@H]2C1=CC[C@H]1C(=O)NC(=O)[C@H]12
    2 | 12 | -0.7 | 3 | 0 | 3.7 | 0.3 | x | 3.4 | -3
> CCn1c(C)nc2cc(C(=O)NNC(=O)Nc3ccc(Cl)c(Cl)c3)ccc21
    -4 | 4 | 0.9 | -5 | -3 | 2.8 | 1.2 | -7% | 1.3 | -22
> COc1ccc(CCNC(=S)NCCc2c[nH]c3ccccc23)cc1
    -3 | -11 | 5.7 | -33* | -25* | 2.6* | -0.2 | u | 12 | 0
> CCC(C(N)=NCCc1ccc(OC)c(OC)c1)c1ccccc1 (centres undefined)
    13 | -4 | -1.4 | 11 | 4 | -0.1 | 0.4 | 5% | -0.7 | 0
> Cc1ccc(N(C(=O)Cn2nnc(-c3ccc(F)cc3)n2)C(CC(C)C)C(=O)NCC2CCCO2)cc1 (centres undefined)
    1 | 6 | 4.0 | x | x | x | 0.1 | -6% | x | 12
> Cc1cc(CNC(=O)COc2cc(F)ccc2[N+](=O)[O-])c2ccccc2n1
    8 | 11 | 1.1 | -1 | -2 | -6.0 | 2.2 | 16% | 4.1 | -14
> CC(C)(C)c1csc(NC(=O)Nc2ccccc2)n1
    9 | -15 | 0.1 | -16 | -17 | -2.8 | 0.5 | -3% | -0.7 | 17
> C=CCOc1ccc(CN(C)C(=O)CN2C(=O)c3ccccc3C2=O)cc1
    6 | -4 | 7.7 | 1 | -1 | -6.3 | 0.7 | x | -0.5 | 0
> Cc1nnc(-c2ccccc2)c[n+]1[O-]
    -2 | 13 | -4.5 | x | x | x | 1.1 | -2% | x | -7
> Cc1cccc(NC(=O)CNc2cc(C)ccc2C)c1
    -4 | -13 | u | x | x | x | -1.8 | 2% | x | 6
> Cc1cccc(N=C(N2CCOCC2)P(=O)(N2CCOCC2)N2CCOCC2)c1
    0 | 49 | -1.8 | x | x | x | -0.1 | -1%&-1% | x | -2
> O=C(COC(=O)c1n[nH]c(=O)c2ccccc12)NC1CCCCC1
    -7 | x | x | 5 | -4 | 2.5 | 0.0 | -6% | -4.9 | x
> COc1cc(-c2nnc(-c3ccc(S(=O)(=O)c4ccccc4)cc3)o2)cc(OC)c1OC
    x | 12 | 0.5 | x | x | x | x | -11% | x | 8
> CCN1CCN(S(=O)(=O)c2ccc(OC)c3ccccc23)CC1
    -5 | -1 | 1.8 | 7 | -4 | 2.8 | 0.9 | u | 0.0 | -5
> Cc1ccc(CS(=O)(=O)c2ccccc2-c2nnc(-c3ccc(Cl)cc3)o2)cc1
    -1 | 1 | -1.9 | x | x | x | -2.1 | 0% | x | -13
> Cc1cc(C)n2nc(C(=O)Nc3ccc(S(=O)(=O)N4CCCCC4)cc3)nc2n1
    -1 | -1 | 0.6 | x | x | x | -0.4 | -8% | x | 4
> O=C(c1ccc(S(=O)(=O)Nc2ccccc2Cl)cc1)N1CCOCC1
    -1 | -2 | x | -2 | -4 | -3.3 | 1.6 | 5% | -0.4 | -9
> Cc1nc(NC(=O)CC(C)C)sc1-c1csc(Nc2ccc(Cl)cc2)n1
    -2 | 1 | 3.7 | 1 | 2 | 6.7 | -0.3 | 2% | 5.0 | 21
> O=C(Nc1c(Cl)cccc1Cl)C1CCC1
    -5 | 8 | -1.8 | x | x | x | 0.6 | 12% | x | 5
> COc1cccc(-c2nn(-c3ccc(C)cc3)cc2C(=O)N2CCc3cc(OC)c(OC)cc3C2)c1
    3 | 16 | u | -7 | -6 | 0.9 | 0.4 | -7% | -0.4 | 19
> Cn1ccnc1C1CCCCN1Cc1nc(-c2ccc3c(c2)OCO3)no1 (centres undefined)
    -6 | 1 | -1.5 | -3 | -1 | 2.0 | 0.3 | x | 1.7 | -1
> CN(CC(=O)Nc1ccc(F)cc1)C(=O)COc1ccc([N+](=O)[O-])cc1Cl
    0 | u | -3.5 | -24* | -10* | -3.5* | -1.2 | 7% | 1.9 | 4
> CC(C)(C)NS(=O)(=O)c1ccc2nc(NC(=O)Cc3cccs3)sc2c1
    x | -6 | u | x | x | x | 0.7 | u | x | 7
> COc1ccc(NC(=O)CSc2nnc(-c3ccccn3)n2N)cc1
    3 | -8 | -1.3 | x | x | x | 0.5 | -2% | x | -2
> CCOc1cc(-c2cc(-c3ccccc3)nc(N)c2C#N)ccc1O
    x | 10 | 6.8 | x | x | x | 0.8 | 2% | x | 41
> COc1ccc(-c2nc(CN3CCN(C(=O)c4ccco4)CC3)c(C)o2)cc1OC
    -5 | -3 | 5.1 | 2 | 1 | 3.9 | 3.5 | x | -0.4 | -6
> COC(=O)CCC(=O)Nc1ccc(C)cc1OC(=O)CCC(=O)OC
    -9 | -1 | -1.3 | x | x | x | -0.2 | -5% | x | 7
> O=C(COC(=O)c1cnc(Cl)c(Cl)c1)NCc1ccco1
    -2 | -1 | -3.1 | 6 | 11 | -0.3 | 0.2 | 30% | -2.0 | -23
> CCCCc1cn([C@@H](CCCCNC(=O)OC(C)(C)C)C(=O)N2CCN(C(=O)OC(C)(C)C)CC2)nn1
    -5 | -1 | 3.6 | 2 | 0 | 2.8 | 0.9 | 14% | x | 10
> COc1ccc(NC(=O)CSc2nc3c(c(=O)[nH]2)CCC3)cc1OC
    -3 | -4 | -2.7 | x | x | x | 0.9 | 27% | x | -11
> CCN1CCN(C2=C(NS(=O)(=O)c3ccc(NC(C)=O)cc3)C(=O)c3ccccc3C2=O)CC1
    54 | -3 | 1.3 | -3 | 6 | 4.6 | 0.9 | x | 4.5 | 0
> CC([NH2+][O-])C(C)(C)NO (centres undefined)
    -7 | 0 | 2.3 | x | x | x | 1.1 | 2% | x | -2
> O=[N+]([O-])c1cccc(CN2CCCCCC2)c1
    -5 | -10 | 1.1 | 14 | 14 | 1.2 | -0.8 | x | 0.4 | 0
> CC(=O)c1cccc(NC(=O)c2ccc(NS(C)(=O)=O)cc2)c1
    x | -8 | 12 | x | x | x | -1.8 | 8% | x | -5
> O=C(NCC1CCCO1)C1CCCN1C(=O)Nc1ccc(Cl)cc1 (centres undefined)
    -5 | 15 | 4.2 | 12 | 15 | 1.3 | -0.4 | x | 0.2 | -10
> CCCN(C(=O)COC(=O)c1cc(CC)c(C)s1)c1c(N)n(Cc2ccccc2)c(=O)[nH]c1=O
    -3 | 1 | 3.2 | -1 | 2 | -1.2 | 0.4 | 7% | -5.1 | 7
> Cc1ccc(OCCNC(=O)CCNS(=O)(=O)c2ccc3ccccc3c2)cc1
    2 | x | x | 0 | -20 | 4.2 | -0.7 | x | -1.8 | x
> O=C(Cc1ccccc1)NCC(=O)N1CCN(c2ccccc2)CC1
    -2 | -5 | 4.0 | -2 | 3 | 2.9 | 0.1 | x | 3.2 | -2
> Cc1cc(C)n2nc(SCc3nnc(SCc4ccccc4C)s3)nc2n1
    103* | -15 | 5.8 | -13 | -11 | 13 | 1.5 | -1% | -12 | 12
> COc1ccc(COC(=O)C2=C(C)NC(=O)NC2c2ccccc2)cc1 (centres undefined)
    -2 | -4 | -0.1 | x | x | x | 0.0 | x | 0.0 | 7
> Clc1ccc(CSc2ncn(-c3ccccc3)n2)cc1
    -19 | -54 | -1.2 | x | x | x | 0.5 | x | x | -7
> CCOC(=O)c1cn(Cc2ccc(Br)cc2)nn1
    -4 | -5 | -0.4 | x | x | x | -0.1 | -1% | x | -3
> COc1ccc(NC(=O)CN(C)C(=O)c2ccc(NC3CC3)c([N+](=O)[O-])c2)cc1
    6 | 1 | 4.9 | -4 | -1 | -0.3 | 0.0 | -3% | 3.6 | -7
> COc1ccc(-n2cc(CNCc3cnc4ccccn34)c(-c3cccc(F)c3)n2)cc1
    -2 | -3 | 5.8 | -38 | -81 | -5.2 | 0.3 | 6% | 10 | 29
> Cc1ccc(NC(=O)/C(=C\c2cccnc2)NC(=O)c2ccco2)cc1
    x | -16 | 1.3 | x | x | x | 0.4 | u | x | 0

Screening results from PubChem BioAssay.

Not all compounds are listed; rates above refer to the full screens.
